HSD17B inh – HSD17B dehydrogenase inhibition. Q99714. recombinant HSD17B10, NADH fluorescence kinetic; many of its hits are not listed in these tables. Potency, µM (doses to about 57.1 µM), inactives show at the top dose activity change, negative = inhibition, most hits filed as inhibitors. 7.6% of 75,000 active. AID 893; active means well fitted inhibition curve with a large enough effect; inconclusive means small, poorly fitted or top-dose-only effect; inactive means no such curve, though single readings can be large or run the other way;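 further: the protocol describes HADH2 (HSD17B10) and not the HSD17B4 of the title; nearly all actives have a fitted effect of over 70% in size; most hits overshoot -100% by far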
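Enzyme plus compound, 15 min room temperature; substrate mix added (NAD+ 1 mM, beta-hydroxybutyryl-CoA 90 uM final); plates read kinetically for NADH fluorescence. HADH2 was His-tagged, E. coli-derived, 20 nM.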
* = called active by the depositor; ? = inconclusive; [ ] = dose if it differs, or a comment. On the % scale 0 is the no-effect control and ±100 the full control effect; potency means the concentration at half of the fitted maximal effect. Not all compounds are listed; count on the stated rates, not on these rows.

SMILES	HSD17B inh
COc1ccc(NC(=O)CCc2nc(-c3ccc(C)cc3)no2)cc1Cl	1%
COc1ccc2[nH]c3nc(SCc4nnc(-c5ccc(C)cc5)o4)nnc3c2c1	0%
CCOC(=O)/C(C#N)=C1/C=CN(C)C(C)=N1	-13%
Cn1c(N)c(C(=O)COC(=O)C2(c3cccc(F)c3)CCCC2)c(=O)n(C)c1=O	0%
Cc1noc(C)c1C(=O)OCC(=O)c1ccc[nH]1	-2%
COc1ccc(N2CCN(C(=O)CSc3nnc(-c4cc5ccccc5cc4O)n3C)CC2)cc1	1%
OCC1OC(c2ccccc2)C=CC1Oc1cc(Cl)cc(Cl)c1 (centres undefined)	-2%[11.4 µM]
O=S(=O)(c1ccc(Oc2ccc(Br)cc2F)nc1)N1CCCCC1	2%
Cn1c(O)c(C=NC(CC(N)=O)C(=O)O)c(=O)n(C)c1=O (centres undefined)	2%
Cc1ccc(-c2nnc(N3CCN(C(=O)c4ccco4)CC3)c3ccccc23)cc1	-27%
Cc1c(Cl)cccc1-n1ccnc1SCC(=O)O	-13%
O=C(Nc1cccc(Cl)c1N1CCCCC1)c1ccc2c(c1)OCCO2	-3%
COc1ccc(-c2nnc(SCC#N)o2)cc1	5%
COc1ccc(NC(=O)CSc2nc3ccccc3c(=O)n2CCC(=O)N2CCCCC2)cc1	1%
c1ccc(N2CCN(Cc3nc4ccccc4[nH]3)CC2)nc1	-7%
CCc1nnc(NC(=O)C2CCN(c3nccc(C)n3)CC2)s1	32µM*
COC(=O)c1c(NC(=O)CSc2nnc(Cn3nnc4ccccc43)n2C)sc(C)c1C	5%
COc1cc(O)c(C)c(O)c1	2%
N#Cc1c2n(c3c(=O)n(Cc4ccccc4Cl)cnc13)CCCC2	14%
O=S(=O)(c1cccc2cccnc12)N1CCN(Cc2ccc3c(c2)OCO3)CC1	10%
Cc1ccc(S(=O)(=O)N2CCN(C(=O)CN3CCOCC3)C2C(C)C)cc1 (centres undefined)	-4%
CC(=O)Nc1cccc(OCC(O)Cn2cnc3ccccc32)c1 (centres undefined)	10%
O=C1c2cccc3cccc(c23)N1CN1CCN(c2ccccn2)CC1	3%
CCOc1ccc(NS(=O)(=O)c2ccc3c(c2)CCN3C(=O)CCC(=O)O)cc1	-5%
CCCCn1c(SCC(=O)NC(C)(C)C)nnc1-c1ccco1	-6%

Part of the list above in order of molecular weight, low to high:
SMILES	HSD17B inh
COc1ccc(-c2nnc(SCC#N)o2)cc1	5%
OCC1OC(c2ccccc2)C=CC1Oc1cc(Cl)cc(Cl)c1 (centres undefined)	-2%[11.4 µM]
COc1ccc2[nH]c3nc(SCc4nnc(-c5ccc(C)cc5)o4)nnc3c2c1	0%

Further compounds
SMILES	HSD17B inh
N#Cc1nc(COc2cccc(Cl)c2)oc1N1CCN(c2ccccc2)CC1	-6%
COC(=O)c1[nH]c2ccc(F)cc2c1NS(=O)(=O)c1ccc(OC)cc1OC	-13%
CCC(=O)NC(C)C(c1cccs1)N1CCOCC1 (centres undefined)	2%
C=CCSc1n[nH]c(-c2ccc(OCCCC)cc2)n1	7%
Cc1ccc(NC(=O)NC2(C(=O)NCc3ccco3)CCCCC2)cc1	4%
O=C(Nc1cccc(S(=O)(=O)c2cccc(NC(=O)C3CC3)c2)c1)C1CC1	5%
Cc1ccc(-c2nn3c(C)nnc3s2)cc1NC(=O)c1ccco1	-1%
CCc1n[nH]c(=O)n1Cn1c(CC)n[nH]c1=O	15%
O=C(/C=C/c1ccc(OCc2ccccc2)cc1)c1cccs1	-13%
Cc1ccc(-c2c3c(=O)n(C)c(=O)n(C)c3cn2Cc2ccccn2)cc1	-12%
Cc1cccc(N(CC(N)=O)S(C)(=O)=O)c1C	14%
C=CCNC(=O)c1cc(-c2ccccc2O)on1	2%
c1cc(CNc2ccc3c(c2)OCCO3)ccn1	7%
C[C@@H](C(=O)NCc1nc2ccccc2[nH]1)[C@@H]1C[C@@]1(C)[C@@H](NC(=O)OCc1ccccc1)c1ccccc1	11%
O=C(c1ccco1)N1CCN(c2cc(C(F)(F)F)nc3ncnn23)CC1	-2%
CCCc1nnc(NC(=O)CCCC(=O)O)s1	5%
C=CCn1c(C)cc(C(=O)COC(=O)C2CC(=O)N(Cc3ccccc3)C2)c1C (centres undefined)	7%
Cc1ccc2c(c1)NC(=O)C(CC(=O)NCCCN1CCCC1=O)O2 (centres undefined)	-1%
COc1cccc(-c2nc(CS(=O)(=O)CC(=O)NCCCN3CCc4ccccc4C3)c(C)o2)c1	-15%
COc1ccc(N2C(=O)CC(N3CCCC4CCCCC43)C2=O)cc1 (centres undefined)	0%
O=C(CCn1nnc2ccccc2c1=O)N[C@@H](Cc1ccccc1)C(=O)O	3%
c1ccc(C2=Nn3c(nnc3-c3ccncc3)SC2)cc1	4%
COCc1nc(-c2ccc(-c3ccccc3)nc2OC)no1	-12%
COc1ncc2ncc(=O)n(C3CC3)c2n1	?
Clc1ccc(Cn2cc(/C=N/n3cnnc3)c3ccccc32)cc1	-25%

Reprinted from the part before: seven compounds, then new ones.
SMILES	HSD17B inh
COc1cccc(-c2nc(CS(=O)(=O)CC(=O)NCCCN3CCc4ccccc4C3)c(C)o2)c1	-15%
COc1ccc(N2C(=O)CC(N3CCCC4CCCCC43)C2=O)cc1 (centres undefined)	0%
O=C(CCn1nnc2ccccc2c1=O)N[C@@H](Cc1ccccc1)C(=O)O	3%
c1ccc(C2=Nn3c(nnc3-c3ccncc3)SC2)cc1	4%
COCc1nc(-c2ccc(-c3ccccc3)nc2OC)no1	-12%
COc1ncc2ncc(=O)n(C3CC3)c2n1	?
Clc1ccc(Cn2cc(/C=N/n3cnnc3)c3ccccc32)cc1	-25%
Cc1cc(=O)n(CC(C)O)c(O)c1C#N (centres undefined)	-20%
Cc1nnc(SCC(=O)Nc2sc3c(c2C#N)CCCC3)[nH]c1=O	?
Cc1cc(N2CCN(S(=O)(=O)c3ccc(Cl)cc3)CC2)c2ccccc2n1	-25%
COCCNC(=O)C(c1cccs1)N(C(=O)Cn1nnc2ccccc21)c1cccc(C(C)=O)c1 (centres undefined)	1%
COc1cc(CC(=O)Nc2ccc(S(=O)(=O)Nc3ncccn3)cc2)cc(OC)c1OC	6%
O=C(Nc1ccc2c(c1)OCO2)Oc1ccccc1	-9%
CCOc1ccc(Nc2oc(-c3ccco3)nc2C#N)cc1	?
COc1ccc(NC(=O)c2ccc(NS(=O)(=O)c3c(C)noc3C)cc2)cc1OC	?
COc1cccc(NC(=O)CCSc2nnc3scc(-c4ccccc4)n23)c1	0%
O=C(CC(C(=O)N1CCc2ccccc21)n1ccnc1)NCC1CCCO1 (centres undefined)	-10%
CCC(=O)N(Cc1cc2ccccc2[nH]c1=O)C(C)C	-28%
CCOc1ccc(OCC)c(NC(=O)CN2CCN(c3cccc(C)c3)C(C)C2)c1 (centres undefined)	3%
COC(=O)c1ccc(CC(=O)c2ccc(O)cc2O)o1	-9%
Cc1nnc(SCC(=O)Nc2ccccc2N2CCOCC2)s1	2%
COC(=O)[C@H](Cc1ccccc1)NC(=O)Nc1ccc(S(N)(=O)=O)cc1	2%
CC(C)NC(=O)c1cnc(N2CCN(c3ccccn3)CC2)c2ccccc12	-6%
NNC(=O)c1ccc(OCc2nc3ccccc3[nH]2)cc1	4%[11.4 µM]
Cc1ccnc(NS(=O)(=O)c2ccc(N=[N+]=[N-])cc2)n1	0%[11.4 µM]
COc1cc(OC)cc(N(C(=O)c2ccco2)C(C(=O)NC2CCCC2)c2ccc(N(C)C)cc2)c1 (centres undefined)	-3%
C=CCSc1nnc2c(n1)OC=Nc1ccc(Br)cc1-2	-2%
O=C(Nc1ccc(O)cc1)c1cc(S(=O)(=O)N2CCCC2)ccc1Cl	-3%
CCOC(=O)c1cccc(NC(=O)CSc2nc3ccccc3c(=O)n2CCOC)c1	-1%
O=C(CC(c1ccc(F)cc1)c1ccco1)N1CCOCC1 (centres undefined)	2%
Cc1ccc(C(OC(=O)c2ccco2)C(=O)NCc2cccs2)cc1 (centres undefined)	2%
Cc1ccc(S(=O)(=O)N2CCCC(NC(=O)N3CCN(c4ccccc4)CC3)C2)cc1 (centres undefined)	11%

Single entries from the results shown.
Entry for `O=C(CC(C(=O)N1CCc2ccccc21)n1ccnc1)NCC1CCCO1` (centres undefined) under HSD17B inh: -10%
Entry for `COCCNC(=O)C(c1cccs1)N(C(=O)Cn1nnc2ccccc21)c1cccc(C(C)=O)c1` (centres undefined) under HSD17B inh: 1%
Entry for `O=C(Nc1ccc2c(c1)OCO2)Oc1ccccc1` under HSD17B inh: -9%

Additional results follow:
SMILES	HSD17B inh
Cc1oc(-c2ccccc2F)nc1CN1CCC(C(=O)NC2CCCCCCC2)CC1	9%
CS(=O)(=O)N(CC(=O)NCC1CCCO1)c1cc(Cl)ccc1Cl (centres undefined)	-3%
CC(C)c1ccc(NC(=O)C2CC(=O)N=C(N)S2)cc1 (centres undefined)	-5%
CCO/C=C/C(=O)N(C)CCC#N	7%
CCCC[C@H](CC)CN=C(N)NC(N)=NCCCCCCN=C(N)NC(N)=NC[C@@H](CC)CCCC	2%[25.6 µM]
N#Cc1nc(COc2cccc(Cl)c2)oc1NCc1ccco1	-14%
CCN1CCN(S(=O)(=O)c2ccc3[nH]c(=O)oc3c2)CC1	5%
COc1ccccc1N1CCN(C(=O)C2C3C=CC4(CN(Cc5ccccc5Cl)C(=O)C24)O3)CC1 (centres undefined)	1%
CC(=O)c1ccc(NS(=O)(=O)c2cccc(C)c2)cc1	-17%
CCOc1ccccc1NC(=O)NC1(C(=O)N2CCN3CCCC3C2)CCCCC1 (centres undefined)	12%
CN(c1ccccc1C(=O)Nc1cccc(C(F)(F)F)c1)S(C)(=O)=O	2%
Cc1csc(/C(=N\O)c2csc(C)n2)n1	-10%
COCc1nnc(NC(=O)c2sc3ccccc3c2Cl)s1	-15%
O=C(Cn1nnc(-c2ccc(OCc3ccccc3F)cc2)n1)N1CCOCC1	-14%
Cc1ccc(C=NCc2ccncc2)c(O)c1	7%
O=C(CCCCCN1C(=O)c2ccccc2C1=O)NCc1ccccn1	-6%
CC(=O)N1CCN(c2ccc(NC(=O)c3ccc(C(C)(C)C)cc3)cc2)CC1	2%
c1ccc2c(c1)nnn2CN1CCOCC1	-2%[11.4 µM]
CCOC(=O)C1=C(N)n2c(s/c(=C\c3ccco3)c2=O)=C(C(=O)OCC)C1c1ccco1 (centres undefined)	?
COc1cc(OC)c(NC2c3ccccc3C(=O)N2c2cc(C)ccn2)cc1Cl (centres undefined)	6%
Cn1c(=O)n(Cc2ccccc2)c2ccccc21	8%
O=C(NCCN1CCOCC1)c1cc(-c2ccc(O)cc2)on1	-1%
COC(=O)c1c(N=CN(C)C)c(C#N)c2n1CCCC2	11%
Cc1cc(/C=N/n2cnnc2)c(C)n1-c1ccc(OCc2ccc(F)cc2)cc1	-19%
CCOC(=O)Cn1nc(-c2ccc(Cl)cc2)ccc1=O	8%

4 compounds picked at random from the list so far:
SMILES	HSD17B inh
Cc1csc(/C(=N\O)c2csc(C)n2)n1	-10%
CC(C)c1ccc(NC(=O)C2CC(=O)N=C(N)S2)cc1 (centres undefined)	-5%
O=C(CCCCCN1C(=O)c2ccccc2C1=O)NCc1ccccn1	-6%
CC(=O)N1CCN(c2ccc(NC(=O)c3ccc(C(C)(C)C)cc3)cc2)CC1	2%

New compounds follow:
SMILES	HSD17B inh
CCSc1nc2c(c(=O)[nH]1)C(c1ccncc1)C(C(=O)OC(C)C)=C(C)N2 (centres undefined)	6%
Cc1cc(C(=O)NCc2cccnc2)cs1	1%
COc1ccccc1N(CC(=O)Nc1cccnc1)S(C)(=O)=O	0%
CCOC(=O)/C(C(C)=O)=C1\OC(=O)c2ccccc21	3%
N#CC1=C(N)OC2=C(C(=O)CCC2)C1c1ccncc1 (centres undefined)	-3%
CCCn1c(SCC(=O)Nc2cccc(NC(C)=O)c2)nnc1C(C)C	-1%
CCc1nnc(NC(=O)C2Cc3ccccc3C(=O)O2)s1 (centres undefined)	1%
COc1cc(OC)c(-c2nn3c(-c4ccco4)nnc3s2)cc1OC	?
CCOc1ccc(OCC)c(NC(=O)c2[nH]c(C)c(C(C)=O)c2C)c1	-4%
C[C@@H]1C[C@H](O)c2cc(Cl)ccc2N1	12%
Cc1cc(=O)n(CC(C)C)c(O)c1C#N	1%
O=C(Cn1cc2c(n1)CCCC2)Nc1cc(-c2cccc(Cl)c2)no1	-12%
CN(C)S(=O)(=O)CC12CCC(CC1=O)C2(C)C (centres undefined)	2%
CCC1CCc2c(sc3ncnc(N4CCOCC4)c23)C1 (centres undefined)	-10%
CCc1cc(=O)oc2cc(OCc3nn[nH]n3)ccc12	25µM*
COCCn1c(C)c(C(=O)O)sc1=S	-19%
O=C(O)C1CCCN1C(=O)OCc1ccccc1 (centres undefined)	5%
COc1ccc(N2CCN(C(=O)c3cc4c(-c5ccc(Cl)cc5)nn(C)c4s3)CC2)cc1	-4%
O=C(Nc1ccccc1)N1CC=C(c2ccc(F)cc2)CC1	6%
Cc1ccc(-c2nc3cc(N)ccc3o2)cc1	?
CCCCOc1ccc(-c2nnn(C(C)C(=O)OCC)n2)cc1 (centres undefined)	4%
Cc1onc(-c2ccccc2Cl)c1C(=O)N1CCN(c2ccccc2)CC1	2%
COc1cc(COCC(O)CN2CCOCC2)cc(OC)c1OC (centres undefined)	1%
O=C(NCCCN1CCCCC1)c1ccc2c(=O)n(CCc3ccccc3)c(=O)[nH]c2c1	13µM*
O=C(CC(NS(=O)(=O)c1ccc(Cl)cc1)c1ccco1)NCc1ccco1 (centres undefined)	-11%
CCOC(=O)CCc1c(C)nc2c(c(C)nn2C(C)(C)C)c1C	-12%
CCCc1cc(C(=O)NC2CCCC2)no1	7%

Source: PubChem
